Screening data from PubChem.
FGF22 binding: shifts melting point of recombinant human FGF22 | Q9HCT0 | recombinant FGF22 thermal shift, SYPRO orange fluorescence; percent of sucrose octasulfate shift, DMSO zero | calls only at 9.99 µM | 340,000 tested, 1.5% active | AID 651658;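 active = melting point raised past a set limit in the mean and every replicate; three in four hits are not shown here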
Target sequence (Q9HCT0 whole entry, looked up): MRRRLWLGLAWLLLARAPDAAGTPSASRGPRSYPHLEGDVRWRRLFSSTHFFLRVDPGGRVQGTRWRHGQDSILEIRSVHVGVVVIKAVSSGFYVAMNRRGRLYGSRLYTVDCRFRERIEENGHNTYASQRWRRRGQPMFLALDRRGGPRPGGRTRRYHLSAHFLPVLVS
Calls only; i = inactive. Not all compounds are listed; rates above refer to the full screens.

SMILES | FGF22 binding
CCCCCCCCN1C(=O)[C@@H](CC(=O)NCc2ccc(C)o2)C[C@@]2(C(=O)OC)C1=C[C@H](C1CCCC1)O[C@@H]2C | i
CCC(=O)N(C)C[C@@H]1Oc2ncc(Br)cc2C(=O)N([C@H](C)CO)C[C@@H]1C | i
Cc1nn(C)cc1NC(=O)C[C@H]1CC[C@@H]2[C@H](COc3ccc(NC(=O)NC(C)C)cc3C(=O)N2C)O1 | i
CCCNC(=O)C[C@H]1CC[C@@H]2[C@H](COC[C@@H](O)CN2C(=O)Nc2ccccc2OC)O1 | i
CCCNC(=O)N(C)C[C@H]1Oc2cc(C#CCC(C)C)ccc2S(=O)(=O)N([C@H](C)CO)C[C@@H]1C | i
O=C(CN1CCOCC1)N1CC(=O)N2[C@H](CO)[C@H](c3ccc(/C=C/c4ccccc4)cc3)[C@@H]2C1 | i
COc1ccc(S(=O)(=O)Nc2ccc3c(c2)CC(=O)N([C@H](C)CO)C[C@@H](C)[C@H](CN(C)Cc2ccc4c(c2)OCO4)O3)cc1 | i
O=C(CCN1CCCCC1)N[C@H]1CC[C@@H](CCNS(=O)(=O)c2ccc(F)cc2)O[C@H]1CO | i
CNC[C@H]1Oc2c(NC(=O)Nc3ccc(OC)cc3)cccc2C(=O)N([C@@H](C)CO)C[C@H]1C | i
COCC(=O)N(C)C[C@H]1Oc2ncc(-c3cccc(OC)c3)cc2C(=O)N([C@@H](C)CO)C[C@@H]1C | i
COc1ccc(-c2cnc3c(c2)C(=O)N([C@H](C)CO)C[C@H](C)[C@H](CN(C)C(=O)Nc2ccc(F)cc2)O3)cc1 | i
C[C@@H]1CN([C@H](C)CO)C(=O)c2cc(C#C[C@@H](C)O)cnc2O[C@H]1CN(C)C(=O)Cc1ccccn1 | i
C[C@H](O)[C@@H]1C(=O)N2CCc3c([nH]c4c(-c5ccccc5)cccc34)[C@@H]2C[C@@H]1N(C)C(=O)c1cc(Cl)cc(Cl)c1 | i
C[C@@H]1CCCCO[C@@H](CN(C)C(=O)Nc2ccccc2)[C@@H](C)CN([C@@H](C)CO)C(=O)c2cc(NC(=O)Cc3ccccc3)ccc2O1 | i
CC(C)NC(=O)N1C[C@H]2[C@@H](c3ccccc31)[C@H](CO)N2C(=O)NC(C)C | i
C[C@H]1CN([C@@H](C)CO)C(=O)Cc2cc(NS(=O)(=O)c3ccc(Cl)cc3)ccc2O[C@H]1CN(C)S(=O)(=O)c1ccc(Cl)cc1 | i
C[C@@H]1COc2cccc(NCCO)c2S(=O)(=O)N1 | i
Cc1ccc(S(=O)(=O)N[C@@H]2C=C[C@H](CC(=O)NCc3ccc(Cl)c(Cl)c3)O[C@H]2CO)cc1 | i
CC(=O)N(C)C[C@H]1Oc2cc(-c3ccc(F)cc3)ccc2S(=O)(=O)N([C@H](C)CO)C[C@H]1C | i
Cc1noc(C)c1S(=O)(=O)Nc1ccc2c(c1)CC(=O)N([C@@H](C)CO)C[C@H](C)[C@@H](CN(C)Cc1ccc(-c3ccccc3)cc1)O2 | i
C[C@H](CO)N1C[C@H](C)[C@@H](CN(C)C(=O)c2ccccc2)OCCCC[C@H](C)Oc2ccc(NS(=O)(=O)c3cccs3)cc2C1=O | i
C[C@@H]1CN([C@H](C)CO)C(=O)c2cc(C#CC3CCCC3)cnc2O[C@@H]1CN(C)C(=O)C1CCC1 | i
CC(C)NC(=O)Nc1cccc2c1O[C@@H](CN(C)S(=O)(=O)c1cn(C)cn1)[C@@H](C)CN([C@@H](C)CO)C2=O | i
C[C@@H]1CN([C@@H](C)CO)S(=O)(=O)c2ccc(C#Cc3ccncc3)cc2O[C@H]1CN(C)C(=O)C1CC1 | i
O=C(CC(F)(F)F)N1C[C@H]2[C@@H](c3ccccc31)[C@H](CO)N2C(=O)c1cccnc1 | i

Entries above that have a halogen:
SMILES | FGF22 binding
CCC(=O)N(C)C[C@@H]1Oc2ncc(Br)cc2C(=O)N([C@H](C)CO)C[C@@H]1C | i
O=C(CCN1CCCCC1)N[C@H]1CC[C@@H](CCNS(=O)(=O)c2ccc(F)cc2)O[C@H]1CO | i
COc1ccc(-c2cnc3c(c2)C(=O)N([C@H](C)CO)C[C@H](C)[C@H](CN(C)C(=O)Nc2ccc(F)cc2)O3)cc1 | i
C[C@H](O)[C@@H]1C(=O)N2CCc3c([nH]c4c(-c5ccccc5)cccc34)[C@@H]2C[C@@H]1N(C)C(=O)c1cc(Cl)cc(Cl)c1 | i
C[C@H]1CN([C@@H](C)CO)C(=O)Cc2cc(NS(=O)(=O)c3ccc(Cl)cc3)ccc2O[C@H]1CN(C)S(=O)(=O)c1ccc(Cl)cc1 | i
Cc1ccc(S(=O)(=O)N[C@@H]2C=C[C@H](CC(=O)NCc3ccc(Cl)c(Cl)c3)O[C@H]2CO)cc1 | i
CC(=O)N(C)C[C@H]1Oc2cc(-c3ccc(F)cc3)ccc2S(=O)(=O)N([C@H](C)CO)C[C@H]1C | i
O=C(CC(F)(F)F)N1C[C@H]2[C@@H](c3ccccc31)[C@H](CO)N2C(=O)c1cccnc1 | i

(more compounds)
SMILES | FGF22 binding
COC(=O)C1=C(C)N(Cc2ccccc2C(F)(F)F)C(=NCc2cccc(C(F)(F)F)c2)NC1c1ccc(F)cc1 (stereo not drawn) | i
CNC[C@H]1OCCCC[C@@H](C)Oc2ccc(NS(=O)(=O)c3cn(C)cn3)cc2C(=O)N([C@@H](C)CO)C[C@@H]1C | i
COc1ccc(NC(=O)N[C@H]2C=C[C@H](CC(=O)NC3CCC3)O[C@@H]2CO)cc1 | i
C[C@@H]1CCCCO[C@@H](CN(C)C(=O)Nc2cccc3ccccc23)[C@H](C)CN([C@@H](C)CO)C(=O)c2cc(NS(=O)(=O)c3cccs3)ccc2O1 | i
C[C@H](CO)N1C[C@H](C)[C@H](CN(C)Cc2cccnc2)Oc2cc(C3=CCCC3)ccc2S1(=O)=O | i
CO[C@@H]1CN(C)C(=O)c2cc(NS(=O)(=O)c3ccccc3)ccc2OC[C@H](C)N(C(=O)NC(C)C)C[C@@H]1C | i
COc1cccc(S(=O)(=O)N2C[C@H](O)COC[C@@H]3O[C@H](CC(=O)Nc4ccccc4)CC[C@H]32)c1 | i
C[C@@H]1CCCCO[C@H](CN(C)Cc2ccccc2)[C@@H](C)CN([C@@H](C)CO)C(=O)c2cc(NC(=O)Nc3ccccc3)ccc2O1 | i
C[C@@H]1CN([C@@H](C)CO)C(=O)c2c(c3ccccc3n2C)-c2ccccc2CO[C@H]1CN(C)C | i
CCC(=O)N1CC2(CN(C(=O)NC(C)C)C2)c2c(n(C)c3cc(OC)ccc23)[C@H]1CO | i
COCC(=O)N1CC2(CN(S(C)(=O)=O)C2)c2c(n(C)c3cc(OC)ccc23)[C@@H]1CO | i
CC=Cc1ccc2n(c1=O)C[C@@H]1[C@@H](CO)[C@H](C(=O)NCC)N(Cc3cccc(F)c3)[C@H]21 (mixture of isomers) | i
Cc1noc(C)c1NC(=O)N(C)C[C@H]1Oc2c(NC(=O)CCCCCC(=O)Nc3ccccc3N)cccc2C(=O)N([C@@H](C)CO)C[C@H]1C | i
CCNC(=O)C[C@H]1CC[C@H]2[C@@H](COc3ccc(NC(=O)Nc4cccc(C#N)c4)cc3C(=O)N2C)O1 | i
CCS(=O)(=O)N1[C@H](C#N)[C@H](c2ccc(C#CC(C)C)cc2)[C@@H]1CO | i
CCN1[C@@H]2c3ccc(-c4ccc(C(=O)N(C)C)cc4)c(=O)n3C[C@@H]2[C@@H](CO)[C@@H]1C(=O)NCCOC | i
Cc1noc(C)c1S(=O)(=O)Nc1ccc2c(c1)C(=O)N([C@@H](C)CO)C[C@@H](C)[C@@H](CN(C)S(=O)(=O)c1ccc(F)cc1)OCCCC[C@@H](C)O2 | i
COc1ccc(S(=O)(=O)Nc2ccc3c(c2)C(=O)N([C@@H](C)CO)C[C@@H](C)[C@@H](CN(C)S(=O)(=O)c2ccc(OC)cc2)OCCCC[C@@H](C)O3)cc1 | i
C[C@H](NC(=O)C[C@H]1CC[C@@H]2[C@H](COC[C@H](O)CN2C(=O)Nc2ccccc2)O1)c1ccccc1 | i
O=C(Cc1ccncc1)NCC[C@H]1CC[C@H](NC(=O)Nc2ccc(F)cc2)[C@H](CO)O1 | i
C[C@H]1CCCCO[C@@H](CN(C)S(=O)(=O)c2ccccc2)[C@@H](C)CN([C@@H](C)CO)C(=O)c2cc(N(C)C)ccc2O1 | i
C[C@@H]1CN([C@@H](C)CO)C(=O)Cc2cc(NS(=O)(=O)c3cn(C)cn3)ccc2O[C@H]1CN(C)C(=O)NC1CCCCC1 | i
COCCOC(=O)N1C(=O)[C@@]2(c3ccccc31)[C@H](C(=O)N1CCN(c3ncccn3)CC1)[C@H]1C(=O)O[C@H](c3ccccc3)[C@H](c3ccccc3)N1[C@@H]2c1ccc(O)cc1 | i
C[C@H](CO)N1C[C@H](C)[C@@H](CN(C)C)Oc2c(NC(=O)Nc3ccc(F)cc3)cccc2C1=O | i
Cc1noc(C)c1NC(=O)Nc1ccc2c(c1)CC(=O)N([C@H](C)CO)C[C@@H](C)[C@H](CN(C)CC1CC1)O2 | i

(continued)
SMILES | FGF22 binding
CC(C)NC(=O)Nc1ccc2c(c1)CC(=O)N([C@@H](C)CO)C[C@@H](C)[C@@H](CN(C)S(=O)(=O)c1ccc(F)cc1)O2 | i
Nc1nc2c(ncn2[C@@H]2O[C@H](C(=O)N[C@@H](Cc3ccccc3)C(=O)NCc3ccccc3)[C@@H](O)[C@H]2O)c(=O)[nH]1 | i
O=C(c1ccncc1)N1C[C@@H]2[C@H](c3ccccc31)[C@@H](CO)N2C(=O)c1ccncc1 | i
CO[C@@H]1CC[C@H]2CCOc3c(C#N)cccc3C(=O)N(C)C[C@H](c3ccccc3)CC(=O)N(C)C[C@@H]1O2 | i
C[C@H]1CCCCO[C@H](CN(C)S(=O)(=O)c2ccc(Cl)cc2)[C@@H](C)CN([C@@H](C)CO)C(=O)c2cc(NC(=O)Nc3ccc(C(F)(F)F)cc3)ccc2O1 | i
COc1ccc(CN2CC3(C2)CN(C(=O)CN(C)C)[C@@H](CO)c2[nH]c4cc(OC)ccc4c23)cc1 | i
O=C(N[C@H]1CC[C@H](CCNS(=O)(=O)c2ccc(F)cc2)O[C@H]1CO)C1CCOCC1 | i
CN(C)C(=O)c1cccc(-c2ccc3c(c2)[C@H]2[C@H](CCN2C(=O)C2CC2)[C@@H](CO)N3)c1 | i
C[C@H](CO)N1C[C@H](C)[C@H](CN(C)Cc2ccncc2)Oc2ccc(NS(=O)(=O)c3ccccc3)cc2CC1=O | i
C[C@H](CO)N1C[C@H](C)[C@@H](CN(C)C)Oc2ncc(C#Cc3cccnc3)cc2C1=O | i
O=C(C[C@H]1CC[C@H](NC(=O)c2cccnc2)[C@H](CO)O1)NCc1ccncn1 | i
COc1ccc(S(=O)(=O)N(C)C[C@@H]2Oc3ccc(NC(=O)Nc4c(C)noc4C)cc3C(=O)N([C@H](C)CO)C[C@H]2C)cc1 | i
C[C@@H]1CN([C@H](C)CO)C(=O)Cc2cc(NS(=O)(=O)c3cccs3)ccc2O[C@H]1CN(C)S(=O)(=O)c1ccc(F)cc1 | i
CN1[C@@H]2Cn3c(ccc(/C=C/c4ccccc4)c3=O)[C@H]1[C@@H](C(=O)NC1Cc3ccccc3C1)[C@@H]2CO | i
C[C@H](NC(=O)C[C@@H]1C[C@@H]2c3cc(NS(C)(=O)=O)ccc3O[C@@H]2[C@H](CO)O1)c1ccccc1 | i
CC(C)C(=O)Nc1ccc2c(c1)C(=O)N(C)[C@H]1CC[C@@H](CC(=O)NCc3cccc(F)c3)O[C@@H]1CO2 | i
C[C@H]1CN([C@@H](C)CO)S(=O)(=O)c2ccc(C#CC(C)(C)O)cc2O[C@H]1CN(C)C | i
C/C=C/c1cnc2c(c1)C(=O)N([C@@H](C)CO)C[C@H](C)[C@@H](CN(C)Cc1ccccc1)O2 | i
C[C@@H]1CN([C@@H](C)CO)C(=O)Cc2cc(NC(=O)Nc3ccc4c(c3)OCO4)ccc2O[C@@H]1CN(C)Cc1ccc2c(c1)OCO2 | i
COc1cccc(CNC(=O)C[C@@H]2C=C[C@H](NS(=O)(=O)c3ccccc3OC)[C@H](CO)O2)c1 | i
COCCNC(=O)C[C@H]1C[C@@H]2c3cc(NC(=O)Nc4ccc(F)cc4)ccc3O[C@@H]2[C@H](CO)O1 | i
COc1ccc(NC(=O)Nc2cccc3c2O[C@H](CN(C)Cc2ccc(C(=O)Nc4ccccc4N)cc2)[C@@H](C)CN([C@H](C)CO)C3=O)cc1 | i
Cc1ccc(-c2ccc3c(c2)O[C@@H](CN(C)Cc2ccccn2)[C@@H](C)CN([C@H](C)CO)S3(=O)=O)cc1 | i
C[C@H]1CN([C@@H](C)CO)C(=O)c2cc(C#CC3CCCCC3)cnc2O[C@H]1CN(C)C(=O)NC1CCCC1 | i
Cc1cccc(S(=O)(=O)N2CC[C@H]3[C@H](CO)Nc4ccc(C#Cc5ccc(F)cc5)cc4[C@H]32)c1 | i

(next part)
SMILES | FGF22 binding
CCCc1cn(CC[C@@H]2CC[C@H](NC(=O)C3CCCCC3)[C@H](CO)O2)nn1 | i
C[C@H]1CCCCO[C@@H](CN(C)C(=O)CCCN(C)C)[C@@H](C)CN([C@@H](C)CO)C(=O)c2cc(NS(=O)(=O)c3ccccc3)ccc2O1 | i
O=C(O)C[C@@H]1CC[C@H](NC(=O)Nc2ccccc2)[C@@H](CO)O1 | i
C[C@@H]1CN([C@@H](C)CO)C(=O)c2cc(-c3cccnc3)cnc2O[C@H]1CN(C)C(=O)NC1CCCC1 | i
O=C(C[C@H]1CC[C@@H](NS(=O)(=O)c2cccc(F)c2)[C@@H](CO)O1)NCc1ccc2c(c1)OCO2 | i
c1ccc(CN2CCCC3CC2c2ccccc23)cc1 (stereo not drawn) | i
CC(C)CC#Cc1cnc2c(c1)C(=O)N([C@H](C)CO)C[C@@H](C)[C@@H](CN(C)C(=O)c1cnccn1)O2 | i
